# Source: PubChem BioAssay (National Center for Advancing Translational Sciences (NCATS))
# AID923 – qHTS Assay for Allosteric/Competitive Inhibitors of Caspase-1: Spectroscopic Profiling in AFC Spectral Region | Potency, µM (top dose mostly 57.5 µM), for inactives: at the top dose fluorescence increase, usual class: activators | compound fluorescence, AFC spectral region (405/520 nm); almost no hit is shown here | 75,000 tested, 1.1% active; active = well fitted activation curve with a large enough effect; inconclusive = small, poorly fitted or top-dose-only effect;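 also: potency is read from the fitted curve at half-maximal effect; 0% is about no effect; scaled to a free AFC standard on each plate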
#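 Titrations up to 57 uM read every 20 sec for 3 min (405/520 nm) with 50 nM caspase 1 and 5 uM Ac-WEHD-AFC, pH 7.5 HEPES buffer. Fluorescence-vs-time intercept gave baseline, scaled against on-plate AFC standard.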
# Resorufin fluor – compound fluoresces in the resorufin spectral region; 59,000 tested, 0.04% active; max dye-equivalent concentration, M; Compound fluorescence, resorufin region 547/598 nm, buffer; active compounds read high; AID 588; active = above 10 nM dye equivalent; inconclusive = 1 to 10 nM; inactive = 1 nM or less; a few of its hits are not listed in these tables; also: highest value over a series up to 38 µM
#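 Read-out: intrinsic compound fluorescence at ex 547/em 598 nm after 15 min at RT in pH 8.0 Tris (100 mM). Values expressed as resorufin-equivalent concentration from per-plate standard series.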
# TSHR ag – agonists of human thyroid stimulating hormone receptor | 73,000 tested, 0.48% active | P16473 | Potency, µM (top dose mostly 57.1 µM), without a hit: at the top dose activation, hits mostly activators | AID 926 | HEK293-CNG-TSHR cells (CNG channel as cAMP sensor), membrane potential dye, cAMP; active = well fitted activation curve of enough size with the parental cells flat; inconclusive = any curve in the parental cells; inactive = parental cells flat and receptor cells flat or falling; also: potency is read from the fitted curve at half-maximal effect; % of control where 0% means no effect; weak receptor curves with flat parental cells got no call and are not listed
# Target sequence (P16473 whole entry, looked up): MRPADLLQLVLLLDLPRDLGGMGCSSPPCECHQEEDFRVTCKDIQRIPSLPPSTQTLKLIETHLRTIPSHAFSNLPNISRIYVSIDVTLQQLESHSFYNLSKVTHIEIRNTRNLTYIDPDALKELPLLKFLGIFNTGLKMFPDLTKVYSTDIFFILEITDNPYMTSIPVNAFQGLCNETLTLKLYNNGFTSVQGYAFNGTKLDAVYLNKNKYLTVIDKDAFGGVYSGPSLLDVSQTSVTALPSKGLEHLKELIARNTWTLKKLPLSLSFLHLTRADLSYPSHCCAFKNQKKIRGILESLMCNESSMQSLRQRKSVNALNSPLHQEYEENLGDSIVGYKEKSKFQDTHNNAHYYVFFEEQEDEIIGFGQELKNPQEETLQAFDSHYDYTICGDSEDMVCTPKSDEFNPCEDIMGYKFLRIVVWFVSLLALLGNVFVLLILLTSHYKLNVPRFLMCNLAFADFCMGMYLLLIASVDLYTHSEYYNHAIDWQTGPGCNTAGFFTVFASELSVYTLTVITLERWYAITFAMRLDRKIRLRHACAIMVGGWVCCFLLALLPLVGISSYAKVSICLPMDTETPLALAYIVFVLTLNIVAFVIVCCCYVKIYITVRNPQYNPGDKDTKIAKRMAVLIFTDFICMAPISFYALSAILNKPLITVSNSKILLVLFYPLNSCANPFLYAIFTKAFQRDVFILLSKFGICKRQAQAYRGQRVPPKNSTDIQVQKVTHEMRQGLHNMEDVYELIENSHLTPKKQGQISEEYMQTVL
#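 cAMP rise detected as CNG-channel membrane depolarization by fluorescent dye (emission 590 nm), 30 min after compound, following 60 min dye loading containing 100 uM RO 20-1724 at room temperature. Cells: TSHR/CNG HEK 293, with parental CNG HEK 293 as control.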
# A488 fluor – compound autofluorescence in A488 spectral region; compound autofluorescence, A488 spectral region, dye equivalency; active compounds read high; max dye equivalency, M; 59,000 tested, 0.1% active; AID 591; active = above 10 nM dye equivalent; inconclusive = 1 to 10 nM; inactive = 1 nM or less; about half of its hits are not listed in these tables;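 also: highest value over a series up to 38 µM; compound alone in buffer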
#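 Compound autofluorescence was read in 100 mM Tris pH 8.0 after 15 min at room temperature, ex 480 nm/em 540 nm. Intensities were converted to A488 dye-equivalent concentration using an on-plate six-point A488 standard curve.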
# A647 autofl – compound autofluorescence in A647 spectral region; Compound fluorescence, A647 channel (570/671 nm), Tris buffer; max dye-equivalent concentration, M; 59,000 tested, under 10 active; active means above 1 µM dye equivalent; inconclusive means 0.1 to 1 µM; inactive means 0.1 µM or less;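 also: values scaled relative to a standard on each plate; highest value over a series up to 38 µM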
#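 Compounds pinned into 100 mM Tris pH 8.0, 15 min at room temperature, then read with 570 nm excitation/671 nm emission filters. Fluorescence normalized to an on-plate six-point Alexa 647 standard curve, giving dye-equivalent concentration per compound concentration.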
# Active calls of the source: *; i = inactive; ? = inconclusive; . = no result given; [ ] = another dose, or the depositor's remark. An excerpt. The share of hits here may be higher or lower than overall.
SMILES,AID923,Resorufin fluor,TSHR ag,A488 fluor,A647 autofl
CN(N=O)C(=O)N[C@H]1C(O)OC(CO)[C@@H](O)[C@H]1O (stereo partly drawn),0.1%,.,-2.2%,.,.
CC1(C)OC(=O)C(=CNc2cccc(O)c2)C(=O)O1,1.2%,i,-2.2%,i,2.3e-09
OC[C@@H]1O[C@@H](n2cnc3c(Nc4ccccc4)ncnc32)[C@@H](O)[C@H]1O,-3.8%,i,?,i,2.34e-08
O=C(CCS(=O)(=O)c1ccc(Br)cc1)N1CCN(Cc2ccccc2)CC1,-0.5%,i,8.7%,i,1.98e-08
CN(C)S(=O)(=O)c1cc(C(=O)NCC2CCCO2)c(Cl)cc1Cl (stereo not drawn),-2.6%,i,32.1%,i,3.75e-08
CN(CC(=O)N1CCCC1)S(=O)(=O)c1cc(Cl)ccc1Cl,-0.8%,i,4.9%,i,9.3e-09
CCc1ccc(C2CC(c3ccccc3)n3ncnc3N2)cc1 (stereo not drawn),-0.7%,.,23.4%,.,.
O=C(O)C1CC2(C1)CC(C(=O)O)C2 (stereo not drawn),-1.9%[11.5 µM],i,1.1%[11.4 µM],i,2.1e-09
CCC(=O)N(Cc1cc2cc(OC)ccc2[nH]c1=O)c1cc(C)ccc1C,0.0%,i,?,i,6.4e-09
CC(=O)c1cc(-c2ccc(F)cc2)n(CCC(=O)Nc2cc(C)[nH]n2)c1C,-2.0%,i,11.2%,i,7.6e-09
CC(CN1c2ccccc2Sc2ccccc21)N(C)C (stereo not drawn),1.0%,i,.,i,1e-09
Cc1occc1C(=O)Nc1ccc(S(=O)(=O)N2CCCC2)cc1,-2.8%,i,-2.3%,i,3.58e-08
CCOc1nc(Oc2cccc(C(=O)O)c2)nc(Oc2cccc(C(=O)O)c2)n1,.,i,.,i,6.7e-09
COc1ccc(C(=O)N2CCC(C(=O)NCc3ccccn3)CC2)cc1,0.6%,i,7.5%,i,2e-08
O=C1N/C(=C\c2ccccc2)c2ccccc21,-0.7%,i,17.5%,i,2.71e-08
COCC(C)n1c(SCC(=O)NC(=O)Nc2ccc3c(c2)OCCO3)nc2ccccc2c1=O (stereo not drawn),2.8%,i,0.0%[11.4 µM],i,1e-09
CCn1c(Cc2c(C)[nH]c3ccccc23)n[nH]c1=S,0.7%,i,0.3%,i,3.29e-08
CCOC(=O)C1(CC)CC(CSc2nc3ccccc3[nH]2)OC1=O (stereo not drawn),-2.1%,i,-3.3%,i,1e-09
Cc1cc(Nc2cc(F)ccc2C)n2ncnc2n1,2.5%,.,2.2%,.,.
COc1cc(NC(=O)COc2ccc(F)cc2)nc(OC)n1,-0.9%,.,7.1%[11.4 µM],.,.
Nc1n[nH]c(-c2ccc(Br)cc2)c1Cl,0.2%,i,-10.5%,i,1e-09
COc1ccc2cc(CN(CC3COCCO3)S(=O)(=O)c3ccc(Cl)cc3)c(=O)[nH]c2c1 (stereo not drawn),-0.4%,i,-8.3%,i,5.09e-08
NC(=O)c1nsc(C(=O)N(CC(=O)NCc2ccc3c(c2)OCO3)C2CCCC2)c1N,3.8%,i,12.6µM*,i,1.5e-09
Cc1ncc(CO)c2c1OC(C)(C)OC2,0.4%,i,-5.7%,i,1.6e-09
CC(C)CCn1c(=S)[nH]c2ncccc2c1=O,0.6%,i,1.6%,i,6e-09

# Part of the list above, as labelled records:
canonical_smiles: CC(C)CCn1c(=S)[nH]c2ncccc2c1=O
  AID923: 0.6%; Resorufin fluor: i; TSHR ag: 1.6%; A488 fluor: i; A647 autofl: 6e-09
canonical_smiles: O=C1N/C(=C\c2ccccc2)c2ccccc21
  AID923: -0.7%; Resorufin fluor: i; TSHR ag: 17.5%; A488 fluor: i; A647 autofl: 2.71e-08

# New compounds follow.
SMILES,AID923,Resorufin fluor,TSHR ag,A488 fluor,A647 autofl
C=CCn1c(SCC(=O)Nc2ccc3c(c2)OCO3)nnc1-c1cc(Br)ccc1O,1.2%,i,-9.6%,i,1e-09
CC(C)NC(=O)C1CCCN(S(C)(=O)=O)C1 (stereo not drawn),3.5%,i,.,i,5.4e-09
COc1ccc(-n2c(=O)c(CCc3ccccc3)nc3cnc(N(C)C)nc32)cc1,8.3%,i,-1.9%,i,1.3e-09
Cc1cc(NC(=O)CSc2nc(C3CC3)nc3sc4c(c23)CCC(C)C4)no1 (stereo not drawn),-1.1%,i,22.3%,i,3.1e-09
CN1CCN(CC(=O)N(C)c2nc(-c3ccccc3)cs2)CC1,1.6%,i,22.0%,i,4.05e-08
CSc1nnc(Cn2c(=O)sc3ccccc32)n1-c1cccc(Cl)c1,1.3%,i,14.4%,i,3.41e-08
OC1CC(c2ccco2)NC2(CCCCC2)C1 (stereo not drawn),-4.5%,i,0.6%,i,5.12e-08
N#Cc1ccc(NC(=O)COC(=O)C2=COCCO2)cc1,-0.6%,i,-0.3%,i,2.99e-08
Cc1c(C(=O)NCc2cccnc2)oc2ccc(S(=O)(=O)N3CCCCCC3)cc12,0.8%,i,1.7%[11.4 µM],i,1e-09
CC(C)(C)NC(=O)CSc1nnc(CN2CCCCCC2=O)n1-c1ccccn1,-0.3%,i,-1.0%,i,3.19e-08
COc1cc(/C=N\n2nnnc2N)ccc1OCc1ccc(F)cc1,-2.3%,.,?,.,.
COc1cc(NC(=O)Cn2c(-c3cncs3)nc3ccccc32)cc(OC)c1OC,0.1%,i,22.1%,i,4.6e-09
Brc1c(OCCOCCn2cncn2)ccc2ccccc12,-0.9%,i,18.2%,i,2.88e-08
COc1ccccc1N(CN1CCCC1=O)C(=O)c1ccccc1F,-2.9%,i,14.8%,i,2.83e-08
Cc1ccc(C)c(-n2c(SCC(=O)Nc3nonc3C)nnc2-c2ccoc2C)c1,0.1%,i,?,i,1e-09
N=C(N)c1ccc(N=Nc2c(O)ccc3c2[nH]c2ccccc23)cc1,-0.5%[11.5 µM],i,-9.0%[11.4 µM],i,1.91e-08
Cc1ccc(OCC(=O)N(Cc2ccc(N(C)C)cc2)C2CCS(=O)(=O)C2)cc1 (stereo not drawn),-0.3%,i,3.5%[11.4 µM],i,1e-09
C/C(CCN1CCCCc2nc(C)c(C)cc21)=N\O[C@@H](C)CN1CCCc2nc(C)c(C)cc21,3.7%[11.5 µM],.,5.6%[11.4 µM],.,.
NS(=O)(=O)c1ccc(N=Nc2ccc[nH]c2=O)cc1,4.5%[11.5 µM],i,0.4%[11.4 µM],i,1.05e-08
O=C(c1ccccc1)N1CCN(CC2CC=CCC2)CC1 (stereo not drawn),-1.0%,i,-9.8%,i,8.4e-09
COn1c(=O)c(-c2ccc(Cl)cc2)[n+]([O-])c2ccccc21,6.6%,i,-1.9%,i,1e-09
COc1cccc(-c2nc(N3CCC(C)CC3)c3ccccc3n2)c1O,.,i,.,i,1e-09
O=C(Nc1nccs1)C1CCN(S(=O)(=O)c2cccnc2)CC1,0.5%,.,-1.8%,.,.
CCCc1cc(=O)[nH]c(SCC(=O)NC2CCCCC2)n1,1.4%,.,-5.1%,.,.
COc1ccc(-c2ccc(=N)n(CCCC(=O)O)n2)cc1,-1.7%,.,3.7%,.,.
SMILES,AID923,Resorufin fluor,TSHR ag,A488 fluor,A647 autofl
O=C(c1cc2ccccc2cc1OCC(O)CN1CCCCC1)N1CCCCC1 (stereo not drawn),-2.0%,.,?,.,.
COC(=O)COc1ccc(S(=O)(=O)N2CCN(c3ccccc3F)CC2)cc1,0.0%,i,?,i,2.7e-09
CSc1nc(N(CCO)CCO)c2sc3nc(-c4ccco4)c4c(c3c2n1)CCC4,1.3%,i,?,i,3.9e-09
CCOc1ccc(Cn2c(SCCCCC#N)nc3c2c(=O)n(C)c(=O)n3C)cc1OCC,-0.6%,i,11.4%[11.4 µM],i,2.05e-08
CC(C)n1c(Nc2ccccc2)nc2ccccc21,11.0%,i,-1.9%,i,1e-09
Cc1ccc(-n2c(C)cc(C(=O)OCC(=O)N(CC(C)C)C3CCS(=O)(=O)C3)c2C)cc1 (stereo not drawn),-0.6%,i,21.9%,i,1e-09
Cc1ccccc1NC(=O)CSc1nc2c(c(-c3ccco3)c1C#N)CCCC2,0.9%,i,.,i,1e-09
COc1ccc(C(CC(=O)O)NC(=O)COc2ccccc2OC)cc1OC (stereo not drawn),0.0%,i,14.9%,i,2.64e-08
CCOC(=O)c1cnc(-n2nc(C)cc2C)nc1-n1nc(C)cc1C,-0.1%,i,3.16µM*,i,4.73e-08
COCCn1c(SCC(=O)c2ccc(CNC(C)=O)o2)nc2ccccc2c1=O,-0.3%,i,?,i,1e-09
COc1cc2c(C(=O)NCc3ccc4c(c3)OCO4)cn(CC(C)C)c(=O)c2cc1OC,-1.2%,i,2.5%[11.4 µM],i,1e-09
CCOC(=O)N1CCN(Cc2nc(N)nc(Nc3ccc(Oc4ccccc4)cc3)n2)CC1,0.5%,i,-18.5%,i,1.91e-08
Cc1ccc(N2CC(C(=O)Nc3ccc(S(=O)(=O)N4CCCC4)cc3)CC2=O)cc1 (stereo not drawn),0.5%,i,-10.8%,i,7.6e-09
COc1cc(NC(=O)C2CC(=O)NC3=C2C(=O)CC(C)(C)C3)c(OC)cc1Cl (stereo not drawn),0.2%,i,?,i,3.49e-08
COc1ccc(-c2nnc3sc(-c4c(OC)cccc4OC)nn23)cc1,.,i,.,i,5.1e-09
OC(Cn1cncn1)c1ccc(Cl)cc1Cl (stereo not drawn),-1.8%,i,-5.7%,i,1.34e-08
CC(C(=O)O)N1C(=O)CSc2ncccc21 (stereo not drawn),-1.0%,.,-4.0%,.,.
O=C(CN1C(=O)CCC1=O)Nc1ccc(S(=O)(=O)N2CCOCC2)cc1,-0.9%,i,5.7%[11.4 µM],i,3.16e-08
O=C(Nc1nnc(SCC(=O)N2CCCCC2)s1)C1CCCCC1,-2.1%,i,-1.4%,i,9.6e-09
ClC(Cl)(Cl)C(N1CCN(c2ccccc2)CC1)N1CCN(c2ccccc2)CC1,-0.1%[11.5 µM],i,4.0%[11.4 µM],i,1e-09
Cc1nc2ccccc2n1-c1ccccc1,1.2%,.,8.7%,.,.
O=c1ccc(-c2ccccc2)n[nH]1,-0.4%[11.5 µM],i,2.2%[11.4 µM],i,2.13e-08
COCCn1nnnc1CN(CCCN1CCOCC1)Cc1cc2c(C)ccc(C)c2[nH]c1=O,0.8%,i,2.4%,i,3.7e-09
COc1ccccc1NS(=O)(=O)c1ccc(C)c(C(N)=O)c1,-1.4%,i,3.2%,i,1.86e-08
CC(=O)Nc1ccc(S(=O)(=O)N2CCN(C(=O)CCC3CCCC3)CC2)cc1,-1.4%,.,-2.2%[11.4 µM],.,.
SMILES,AID923,Resorufin fluor,TSHR ag,A488 fluor,A647 autofl
CCCNS(=O)(=O)c1ccc(CCC(=O)NCC2CCCO2)cc1 (stereo not drawn),1.5%,i,-3.5%,i,2.7e-09
CC1Cc2ccccc2N1C(=O)CCN1C(=O)C2C3C=CC(C3)C2C1=O (stereo not drawn),-0.1%,i,-0.3%,i,2.3e-09
CCN(CCCNC(=O)CN1C(=O)COc2ccccc21)c1ccccc1,1.2%,i,2.8%,i,2.48e-08
N#CCCN1CCN(S(=O)(=O)c2ccc(S(=O)(=O)NCc3ccccc3)cc2)CC1,-0.6%,.,-4.7%,.,.
CCNc1nc2c(c(=O)[nH]c(=O)n2C)n1CC(C)C,-2.0%,.,-13.2%,.,.
Cc1cc(C)n2nc(SCc3cc(=O)n4c(C)cccc4n3)nc2n1,0.3%,i,5.3%,i,1.87e-08

# Ordered by SMILES length (largest number first): part of the list above
SMILES,AID923,Resorufin fluor,TSHR ag,A488 fluor,A647 autofl
CN(CC(=O)N1CCCC1)S(=O)(=O)c1cc(Cl)ccc1Cl,-0.8%,i,4.9%,i,9.3e-09
COc1ccccc1N(CN1CCCC1=O)C(=O)c1ccccc1F,-2.9%,i,14.8%,i,2.83e-08
COc1cc(NC(=O)COc2ccc(F)cc2)nc(OC)n1,-0.9%,.,7.1%[11.4 µM],.,.
